UCH37 inh – blocks the human deubiquitinase UCH37 | Q9Y5K5 | AID 588478 | 330,000 tested, 0.33% active | purified proteasome/UCH37, Ub-AMC cleavage fluorescence | inhibition, % (test concentration not listed);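 active = mean of two replicates above 20%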;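 also: 0% = compound-free wells with enzyme and 100% = wells lacking proteasome; stock transfer was 100 nL into about 20 µL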
Target sequence (Q9Y5K5 whole entry, looked up): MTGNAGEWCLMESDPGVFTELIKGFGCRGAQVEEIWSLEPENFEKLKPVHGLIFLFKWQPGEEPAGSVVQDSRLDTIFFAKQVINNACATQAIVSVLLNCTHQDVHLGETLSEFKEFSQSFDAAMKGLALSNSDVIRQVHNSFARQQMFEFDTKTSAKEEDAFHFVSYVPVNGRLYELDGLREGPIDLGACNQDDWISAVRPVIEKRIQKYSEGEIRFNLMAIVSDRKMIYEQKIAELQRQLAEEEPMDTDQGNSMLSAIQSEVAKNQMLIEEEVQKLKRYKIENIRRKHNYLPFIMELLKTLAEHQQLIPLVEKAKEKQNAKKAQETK
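Material: Human UCH37 enzyme supplied as purified proteasome complex | Schedule: 30 min preincubation with enzyme, 25 min cleavage at room temperature | Detection: AMC fluorescence 355/460 nm | Measure: % inhibition of Ub-AMC cleavage fluorescence | Controls: Wells without proteasome as full block, compound-free enzyme plus substrate as uninhibited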
B2AR ag – agonists of human beta-2 adrenergic receptor inducing internalization; P07550; Am2.2-beta2AR cells, FAP receptor internalization, flow cytometry; reference of the scale not given here; response, % (no concentration beside the values); 340,000 tested, 0.43% active;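 active = response above a set limit, near 3 SD of response in nonfluorescent compounds, cut at about 42% in these data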;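 also: stock transfer was 100 nL into about 11 µL; a reference agonist was the positive control; negative values mostly stem from fluorescent compounds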
Target sequence (P07550 whole entry, looked up): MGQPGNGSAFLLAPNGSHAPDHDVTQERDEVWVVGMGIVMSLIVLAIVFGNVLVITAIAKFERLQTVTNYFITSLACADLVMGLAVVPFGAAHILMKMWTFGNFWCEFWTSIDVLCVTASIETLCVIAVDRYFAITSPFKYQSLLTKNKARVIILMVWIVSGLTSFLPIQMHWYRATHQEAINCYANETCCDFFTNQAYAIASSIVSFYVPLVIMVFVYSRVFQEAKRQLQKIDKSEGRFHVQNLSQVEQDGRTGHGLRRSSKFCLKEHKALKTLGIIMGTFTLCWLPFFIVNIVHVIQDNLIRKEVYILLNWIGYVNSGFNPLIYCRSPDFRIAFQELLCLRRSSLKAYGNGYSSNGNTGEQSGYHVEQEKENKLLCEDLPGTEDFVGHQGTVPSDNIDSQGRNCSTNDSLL
RanGTP-Imp inh – disruptors of Ran-importin-beta complex formation – biochemical, FRET, CFP-Ran, YFP-importin-beta, homogeneous, primary screen | cell-free CFP-Ran/YFP-importin-beta FRET ratio | inhibition, % (no concentration beside the values) | 300,000 tested, 1.1% active;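 active = most replicates above 15%; inconclusive = exactly half above 15%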;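 also: 0% = DMSO wells and 100% = Ran loaded with GDP instead of GTP; wells of about 40 µL received 100 nL stock; the first replicate is given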
T cruzi repl – blocks replication of Trypanosoma cruzi; T. cruzi beta-gal in NIH3T3, luminescence, 90 h; 300,000 tested, 1.4% active; inhibition, % (test concentration not listed);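 active = mean inhibition across valid replicates above about 55%, limit read from the data; inconclusive = mean below that limit but half or more replicates reach it; inactive = mean below it, under half of replicates reach it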;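 also: signal also drops with host cell toxicity which is not excluded here; 0% = plate median of DMSO wells and 100% = zero luminescence signal; higher percent means less beta-gal luminescence so fewer parasites; stock transfer was 50 nL into about 50 µL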
LANA-H2B inh – blocks KSHV LANA binding to histone H2A/H2B; cell-free LANA-H2A/H2B peptide, fluorescence polarization; inhibition, % (test concentration not listed); 320,000 tested, 0.6% active; AID 2629; in the data active = inhibition mostly above about 10%, no sharp cut-off; inactive = mostly below about 6.7%;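 also: stock transfer was 7.5 nL into about 10 µL; 0% = median of vehicle wells and 100% = median of positive control wells; one replicate is shown; the record names a cut of 25% in any replicate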
Calb FLC – C. albicans growth modulation with fluconazole. C. albicans CaCi-2 (fluconazole-resistant clinical isolate) + fluconazole, Alamar Blue growth, 48 h. growth inhibition, % (test concentration not listed). 300,000 tested, 0.57% active. AID 1979;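 active = most replicates above 75%; inconclusive = exactly half above 75%; inactive = most below 75%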;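 also: all wells also contain fluconazole at 8 µg/ml as a sub-toxic cotreatment; 0% = median of DMSO wells and 100% = median of geldanamycin control wells; wells of about 8 µL received 7.5 nL stock; the first replicate is given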
Beta cell apopt – blocks beta cell apoptosis; protection from apoptosis, % (test concentration not listed); INS-1E cytokine-induced death, ATP luminescence, 48 h; percent of positive-control rescue, neutral wells zero; 300,000 tested, 0.8% active;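 active = all replicates at 75% or more, or half of them and the mean; inconclusive = half reach 75% but not the mean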;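 also: 0% = cytokine-treated negative control wells and 100% = positive control rescue; higher means more ATP so stronger rescue from cytokine killing; wells of about 40 µL received 100 nL stock; the first replicate is given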
A1 inh – inhibitors of the anti-apoptotic protein A1, read as caspase activation | MEF A1-2A-BIM cells, Caspase-Glo 3/7 luminescence, 3 h; percent of clofoctol response, vehicle zero | AID 2462 | 330,000 tested, 0.066% active | caspase activation, % (concentration not given with the values);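 active = over half of replicate activation scores above 10%, or exactly half above 10 with the replicate mean above 10; inconclusive = replicate mean below 10 yet half the replicates above 10; inactive = over half of replicates below 10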;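 also: wells of about 30 µL received 50 nL stock; many hits fall short of the cut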
An asterisk follows results filed as active; u = inconclusive; x = no result given; & = joins results of further samples.

SMILES,UCH37 inh,B2AR ag,RanGTP-Imp inh,T cruzi repl,LANA-H2B inh,Calb FLC,Beta cell apopt,A1 inh
COc1ccc(-n2c(Cc3cccs3)nnc2SCC(=O)Nc2ccc3c(c2)OCCO3)cc1,1.7,-4,-3.0,10,3.2,-22,-2,-0.6
CCc1nnc(NC(=O)CN2CCC(O)(c3ccccc3OC)CC2)s1,0.4,-2,5.8,-28,-2.9,18,-9,-0.6
CCOC(=O)c1ccc(CNC(=O)CSc2nc(NC(=O)c3ccccc3)c3c(C)c(C)oc3n2)cc1,2.3,-1,-0.4,14,1.3,0,4,0.4
CCOC(=O)N1CCC(O)(c2cc(C)c(C)cc2C)CC1,0.6,-2,-0.2,-9,0.7,1,-3,0.6
C#CCOCCOCCOCCNc1nc(N2CCN(C(=O)[C@H](CCCCN)n3cc(C(N)CO)nn3)CC2)nc(N2CCN(C(=O)[C@H](CCC(=O)O)n3cc(C(N)[C@H](C)CC)nn3)CC2)n1 (some centres not stated),4.5,x,3.8,-15,0.7,1,0,-0.2
O=C(COC(=O)C1(c2ccc(F)cc2)CCCC1)Nc1ncc(C(F)(F)F)cc1Cl,0.1,-7,1.8,-9,0.3,-1,-2,0.3
CCc1cccc2[nH]c3cc([N+](=O)[O-])ccc3c12,-5.8,0,1.8,0,1.9,10,2,1.1
CCCCC(=O)NC(Nc1sc2c(c1C(N)=O)CCCC2)(C(=O)OCC)C(F)(F)F (configuration not stated),-1.3,5,4.1,-14,2.7,2,-8,-1.5
CC(=O)NC(Cc1cccc(F)c1)C(=O)NC1CCN(C(=O)c2cccc(C)c2)CC1 (configuration not stated),1.6,1,1.3,-9,2.4,-9,-4,1.0
O=C(O)CCc1ccc(S(=O)(=O)N2CCOCC2)cc1,2.0,4,0.8,-14,-2.3,1,x,0.1
CCOC(=O)[C@@H]1[C@H]2COc3ccccc3[C@H]2N2C(=O)N(c3ccc(Cl)cc3)C(=O)[C@@]12C,0.3,2,5.1,13,0.3,4,2,0.9
CCCCNC(=O)c1cc(-c2ccc(OC)c(OC)c2)on1,4.6,9,-3.7,-10,-4.6,4,-3,x
CCOC(=O)C1=C(COC(=O)/C=C/c2ccccc2F)NC(=O)NC1C (configuration not stated),x,-8,0.6,-24,0.7,6,-7,-0.3
CCOC(=O)c1ccc(S(=O)(=O)NC2CCC(C)CC2)cc1 (configuration not stated),6.4,14,x,x,-2.0,x,8,-0.6
Cc1ccc(N2CC(C(=O)NC3=NCCS3)CC2=O)cc1 (configuration not stated),-0.5,-2,1.1,-3,0.9,6,-11,0.1
CC(C)(C)c1ccc(/C=C/C(=O)N2CCCCC2)cc1,2.8,6,-1.6,-17,11,21,x,x
Cc1cccc([N+](=O)[O-])c1NC(=O)COC(=O)c1nc2nccc(C)n2n1,-0.7,5,x,x,2.8,x,-3,0.3
COCCn1c(SCC(=O)N2CCC(C)CC2)nc2c(c1=O)SCC2,4.5,-13,-0.7,-15,2.7,-5,-3,0.4
CCOC(=O)C1=C(C)NC2=C(C(=O)OC2)C1c1ccccc1 (configuration not stated),-27,-4,0.6,-6,-0.4,1,3,-0.2
CC(NC(=O)C1CCCN(C(=O)c2ccc(Cl)cc2)C1)c1cccc(C(F)(F)F)c1 (configuration not stated),1.8,0,x,x,-0.6,x,-3,-0.1
Cc1ccc(S(=O)(=O)N(CC(=O)Nc2ccccc2C(=O)O)c2ccccc2)cc1,0.8,-5,1.8,-8,4.0,u,-2,-0.4
CSCC[C@H](NC(=O)NCCC1=CCCCC1)C(=O)O,0.9,1,1.9,-15,-0.8,3,-7,0.0
CCCn1c2ccccc2c2cnn(CC(=O)NC3CCCC(C)C3C)c(=O)c21 (configuration not stated),-1.3,-10,1.3,1,3.8,1,-6,0.5
COc1ccc(OCC(=O)NNC(=S)NC(=O)c2ccc([N+](=O)[O-])cc2)cc1,1.0,-5,-2.8,-2,-2.0,-27,0,0.4
CCOC(=O)c1nc(-c2ccccc2)sc1C(C)=O,0.6,0,1.3,0,-0.1,-16,-3,-0.4
COc1ccc(CCNC(=O)c2cc3c(=O)n4cccc(C)c4nc3n(CC3CCCO3)c2=N)cc1 (configuration not stated),-77,25,-8.9,26,-1.8,2,1,-1.0
CC(C)c1ccc(-c2nnn(CC(=O)N3CCCCC3)n2)cc1,-0.6,-8,-5.6,12,2.5,6,-8,u
COC(=O)C1=C(C)NC(C)=C(C(=O)OC)C1C(=O)OCC(=O)N1c2ccccc2CC1C (configuration not stated),-15&-11,-4&0,-4.7,-9,4.2,8,0,1.0
COc1ccc(CNC(=O)[C@@H](NC(=O)C2CCN(C(=O)[C@@H](N)Cc3ccccc3)CC2)C(C)C)cc1,1.4,-11,u,-3,0.9,-1,0,1.0
COCCN(CCOC)C(=O)c1c[nH]c2ccc(S(=O)(=O)N(C)c3ccc(F)cc3)cc2c1=O,-16,1,2.0,-12,80*,5,-1,0.7
Cc1ccc(S(=O)(=O)N2CCOC23CCN(S(=O)(=O)c2cccs2)CC3)cc1,-0.2,4,2.2,10,-4.6,1,0,0.5
O=C1c2ccccc2S(=O)(=O)c2cc(N3CCN(c4ccccn4)CC3)ccc21,-0.2,15,-0.9,-2,5.6,11,-1,2.0
COCCNC(=O)CN(c1ccc(C)cc1)S(=O)(=O)c1ccc(SC)cc1,2.8,-7,1.3,3,-3.1,9,-4,-0.3
Nc1ccccc1C(=O)/C=C/c1ccc2c(c1)OCO2,-0.6,-2,1.3,1,2.4,8,-9,-7.7
CCOC(=O)c1cnn(-c2nc3c(C)cccc3s2)c1C(F)(F)F,-4.2,3,u,-14,2.9,u,2,-0.1
COc1cc2c(cc1OC)CN(CC(=O)Nc1cccc(C(F)(F)F)c1)CC2,1.6,3,-0.1,4,6.3,-7,-5,-0.3
Cc1nc(-c2ccccc2)sc1C(=O)CSc1ccccc1,3.0,-7,4.2,16,0.7,13,-4,-0.3
O=C(COc1c(Br)cc(Br)c2cccnc12)Nc1ccccc1F,2.0,5,4.7,-2,3.7,-16,-2,0.2
Cc1cc(OC(C)C(=O)Nc2ccc(S(=O)(=O)Nc3onc(C)c3C)cc2)cc(C)c1Cl (configuration not stated),1.6,7,0.7,-11,2.7,-2,-9,1.3
Cn1c(=O)c2nc(-c3ccccc3)c(-c3ccccc3)nc2n(C)c1=O,-203,-9,6.2,10,0.7,10,16,-0.3
O=S(=O)(/N=C(/Nc1ccc(F)cc1F)c1ccccc1)c1ccc(Br)cc1,2.4,x,2.6,-9,-2.0,-10,1,0.0
COc1ccc(C(=O)COc2ccc(C)cc2NC(C)=O)cc1,x,1,u,x,1.4,6,8,-1.0
CCCNC(=O)Nc1ccc(C)cc1C,x,-11,1.9,-19,0.7,-3,-6,0.1
CCCn1cc2c(c1-c1ccc(C)cc1)c(=O)n(C)c(=O)n2C,1.6,-4,-2.3,5,-1.3,-10,0,0.5
COc1cc(C(=O)OCC(=O)NCCN2C(=O)CSC2=O)ccc1OCc1c(C)noc1C,1.2,-4,1.3,-2,x,0,-10,0.7
O=S(=O)(NCCc1ccccc1)c1cccc2cccnc12,3.0,4,-4.8,2,-3.1,-19,-6,0.8
CN(c1ccc(C(=O)Nc2cccc([N+](=O)[O-])c2)cc1)S(C)(=O)=O,5.0,-2,-0.8,0,-0.2,-6,-4,-4.2
O=C(CSc1nnc(CN2CCCC2)n1-c1ccccc1)c1ccc2c(c1)OCO2,3.0,-6,x,x,-3.8,x,-6,0.1
O=[N+]([O-])c1cccc(CNCc2ccccc2)c1,5.5,-1,0.9,-1,4.1,-2,6,0.4
CC(C)NC(NC(=O)Cc1ccccc1)C(Cl)(Cl)Cl (configuration not stated),-0.1,1,-3.0,-10,-3.1,-7,-3,0.9
CC(=O)N1CCC(C(=O)N2CCN(S(=O)(=O)c3cccs3)CC2)CC1,-0.6,-5,-0.9,-3,6.9,1,-3,1.1
Cc1cccc(N=C2NC(=O)C(CO)(CO)S2)c1,-1.2,-9,7.2,-8,1.7,1,x,0.3
CC1(C)CC2(CCO1)OC(=O)CC2C(=O)Nc1ccccc1Cl (configuration not stated),1.5,1,0.7,-6,-6.0,-4,-3,0.2
COc1cccc(C(=O)N2CCN(Cc3cn[nH]c3-c3ccc(F)cc3F)CC2)c1,4.1,-1,-0.1,-13,-9.4,-8,-1,-0.2
CSCC[C@H](NC(=O)NC1CCCC1)C(=O)O,-0.9,8,2.9,-7,-18,7,-2,0.4
CCC(C)(C)NC(=O)CCCSc1nc2ccccc2s1,1.1,-20,-2.2,17,3.0,2,-10,6.7
CCN1C(=O)/C(=C\c2ccc(-c3cccc(C(=O)OC)c3)o2)SC1=Nc1ccc(C(=O)O)cc1,x,x,-8.8,10,1.9,10,-5,-0.7
O=C1CCC(C(=O)Nc2nnc(C3CC3)s2)=NN1,7.0,-3,x,-2,2.6,-12,-4,-0.6
Cc1noc(C)c1COc1ccccc1C(=O)N1CCN(c2cccc(Cl)c2)CC1,3.5,5,x,x,-6.3,x,-3,0.3
Cc1cc([N+](=O)[O-])nn1CC(=O)NNC(=S)Nc1ccc([N+](=O)[O-])cc1,15,-9,-2.5,-2,2.6,-8,-10,0.9

The listing continues.
SMILES,UCH37 inh,B2AR ag,RanGTP-Imp inh,T cruzi repl,LANA-H2B inh,Calb FLC,Beta cell apopt,A1 inh
O=C(NCCC1CCCCN1S(=O)(=O)c1ccc(F)cc1)C(=O)NCC1CCCO1 (configuration not stated),1.5,-2,1.2,4,4.2,-1,0,0.5
CCOC(=O)c1[nH]c2ccc(OC)cc2c1NC(=O)/C=C/c1ccc2c(c1)OCO2,-13,-6,-3.2,14,-2.9,17,4,0.0
Cn1nc(C(=O)OCC(=O)c2ccccc2)c2ccccc2c1=O,4.8,-2,x,x,6.7,x,-7,1.4
COc1ccc(OCC(=O)Nc2ccc(N3CCOCC3)cc2)cc1,1.9,5,0.9,1,5.3,7,1,0.7
FC(F)(F)c1cccc(N2CCc3cn[nH]c32)c1,1.0,-21,-0.7,2,1.0,u,-3,-0.3
COc1ccccc1CNC(=O)C1CCC(CNC(=O)[C@@H]2Cc3ccccc3CN2)CC1 (some centres not stated),2.1,-7,5.2,7,-1.7,10,-4,-0.4
O=C(Nc1nccs1)c1ccc(Cl)c([N+](=O)[O-])c1,2.4,4,-1.9,35,-2.7,43,1,-1.6
O=C1N[C@@H](Cc2cn(S(=O)(=O)c3c(F)c(F)c(F)c(F)c3F)c3ccccc23)C(=O)N[C@H]1Cc1ccccc1,x,x,0.4,-5,1.2,-4,x,-1.3
CC1CC(C)CN(S(=O)(=O)c2cc3c4c(c2)CCC(=O)N4CCC3)C1 (configuration not stated),1.8,11,u,16,2.0,12,5,-0.6
